MT1-MMP act inh – MT1-MMP (human) activation inhibition | 0.061% of 360,000 active | HT1080 RFP-PRO-GFP cells, GFP/RFP ratio fluorescence, overnight; percent of plate control window, DMSO zero | P50281 | GFP/RFP ratio change, % at 20 µM;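 active = GFP/RFP ratio change of at least 30% with cell ATP level not reduced by more than half and red fluorescence within 50% of control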; note: strong numbers were not always called active
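Assay system: HT1080 RFP-PRO-GFP cells | Dosing: 20 µM single dose, 1% DMSO | Incubation: Cells overnight before dosing, compound overnight, 37 °C, 5% CO2 | Evaluation: GFP/RFP fluorescence ratio | Control set: DMSO-only wells and HT1080 RFP-L50D-GFP cell wells as references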
Env fusion inh – blocks HIV Env-driven cell-cell fusion | HeLa-JRFL Env/CEM21 cell fusion, luciferase | inhibition, % at 12.3 µM | 1.1% of 360,000 active;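 active = mean replicate inhibition score of at least 50 and every replicate individually at or above 50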;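 note: 0% = plate neutral controls and 100% = maraviroc near 300 nM; one replicate is shown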
eIF4H inh – inhibitors of RNA binding by human eIF4H; inhibition, % at 35 µM; eIF4H fluorescence polarization binding assay; 0.94% of 290,000 active; Q15056;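 active = 50% or more with normal probe brightness, or confirmed in later tests; about a fifth of its hits are not listed in these tables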;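 note: calls also rest on retests at 20 µM and on dose response follow-up; 0% = protein and probe with vehicle and 100% = probe without protein; strong numbers were not always called active; many hits fall short of the cut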
CSC inhib – cancer stem cell inhibition | 1.1% of 300,000 active | inhibition, % at 7.5 µM | cancer stem cell-like cells viability, luminescence;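 active = mean at 75% or more and at least half the replicates too; tested in HMLE shEcad cells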;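 note: 0% = median of negative and 100% = median of positive control wells; the first replicate is given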
Yeast UUG start – alters start codon recognition fidelity in yeast. S. cerevisiae UUG-firefly luciferase reporter, luminescence/redox ratio. activity score, % at 18.7 µM. 0.13% of 350,000 active. AID 602363;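 active = replicate mean at a twofold rise or more, about +100% in these data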;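 note: firefly luciferase made from a UUG start codon reports start codon fidelity; reporter light over untreated wells divided by growth signal over untreated wells; some hits fall short of that in this replicate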
Rce1 inh – yeast Ras-converting enzyme inhibition. calls only. 0.27% of 290,000 active. Q03530. yeast membranes, quenched prenylated peptide cleavage fluorescence;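 active = fall in fluorescence gain of 50% or more versus controls, with final raw signal at or below 3038400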;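 note: plate controls were neutral control wells for no effect and wells lacking membranes for full effect; tested at 10 µM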
PABP polyA inh – blocks human PABP binding to poly(A) RNA. P11940. fluorescence polarization. inhibition, % at 35 µM. 1% of 290,000 active;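 active = 50% or more with normal probe brightness, or confirmed in later tests; about a fifth of its hits are not listed in these tables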;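 note: calls also rest on retests at 20 µM and on dose response follow-up; controls were probe without protein and protein plus probe with vehicle; some compounds called inactive have numbers as strong as hits; many hits fall short of the cut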
Target sequence (P11940 whole entry, looked up): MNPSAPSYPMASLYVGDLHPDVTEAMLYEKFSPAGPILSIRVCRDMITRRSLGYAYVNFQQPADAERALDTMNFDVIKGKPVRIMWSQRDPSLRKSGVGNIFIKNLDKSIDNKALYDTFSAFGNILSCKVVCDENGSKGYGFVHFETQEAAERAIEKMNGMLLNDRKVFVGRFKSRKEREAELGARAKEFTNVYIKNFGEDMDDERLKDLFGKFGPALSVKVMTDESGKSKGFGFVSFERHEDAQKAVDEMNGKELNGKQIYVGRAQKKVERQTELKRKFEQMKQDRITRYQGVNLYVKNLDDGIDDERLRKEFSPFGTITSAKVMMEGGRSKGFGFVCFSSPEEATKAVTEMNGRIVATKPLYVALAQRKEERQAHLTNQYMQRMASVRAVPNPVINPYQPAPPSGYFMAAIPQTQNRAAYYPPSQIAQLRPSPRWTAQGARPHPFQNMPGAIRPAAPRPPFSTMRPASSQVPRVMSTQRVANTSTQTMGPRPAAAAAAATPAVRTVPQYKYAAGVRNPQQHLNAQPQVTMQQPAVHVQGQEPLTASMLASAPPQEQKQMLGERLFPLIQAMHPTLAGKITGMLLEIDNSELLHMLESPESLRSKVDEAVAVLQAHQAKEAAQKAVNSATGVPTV
MT1-MMP act inh RFP – further read-out of MT1-MMP act inh, marked with its call; RFP signal change, %; measured here: RFP expression control read;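 0 = vehicle wells; hits needed this value within 50% of zero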
Active calls of the source: *; & = joins results of further samples.

How did O=C(Nc1ccc2c(c1)OCCO2)c1ccc(NC(=O)C2CCCO2)cc1 (centres undefined) do in these assays?
MT1-MMP act inh: 6; Env fusion inh: 3; eIF4H inh: 8; CSC inhib: -3; Yeast UUG start: -7; Rce1 inh: inactive; PABP polyA inh: -5; MT1-MMP act inh RFP: 4

Results for c1ccc(CNc2ncnc3sc4c(c23)CCCC4)nc1 ?
MT1-MMP act inh: 0; Env fusion inh: 22; eIF4H inh: 2; CSC inhib: -9; Rce1 inh: inactive; PABP polyA inh: 5; MT1-MMP act inh RFP: -5

Results for Cc1cccc(-c2nn(-c3ccccc3)cc2C(=O)N2CCN(C3CCS(=O)(=O)C3)CC2)c1 (centres undefined) ?
MT1-MMP act inh: 6; CSC inhib: -18; Yeast UUG start: -18; MT1-MMP act inh RFP: 3

How did CCOc1ccc(NC(=O)Nc2cccc(C(=O)O)c2)cc1 do in these assays?
MT1-MMP act inh: 1; Env fusion inh: 63*; eIF4H inh: -5; CSC inhib: 47; PABP polyA inh: -1; MT1-MMP act inh RFP: -5

Results for Cc1ccc(N=C2NC(=O)/C(=C/c3cccnc3)S2)c(C)c1 ?
MT1-MMP act inh: -8; Env fusion inh: 2; eIF4H inh: 3; CSC inhib: 0; Rce1 inh: inactive; PABP polyA inh: -5; MT1-MMP act inh RFP: -11

Results for O=C(OCC(F)(F)F)c1cccc(COc2ccc3ccccc3c2)c1 ?
MT1-MMP act inh: 1; eIF4H inh: 4; CSC inhib: 19; Rce1 inh: inactive; PABP polyA inh: -2; MT1-MMP act inh RFP: 2

What do the screens show for `O=C(NCCc1ccccc1)C(=O)Nc1nccs1`?
MT1-MMP act inh: 0; Env fusion inh: -30; eIF4H inh: -9; CSC inhib: 0; Yeast UUG start: -8; Rce1 inh: inactive; PABP polyA inh: 4; MT1-MMP act inh RFP: 4

Results for Cc1cn([C@H]2C=C[C@@H](CO)O2)c(=O)[nH]c1=O ?
MT1-MMP act inh: -2&2; Env fusion inh: inactive; eIF4H inh: 2&-8; CSC inhib: -16&0; Yeast UUG start: -34&-5; Rce1 inh: inactive; PABP polyA inh: -4&-4; MT1-MMP act inh RFP: 3&4

Results for O=[N+]([O-])c1ccc2oc(-c3ccccc3)nc2c1 ?
MT1-MMP act inh: -4; Env fusion inh: -78; eIF4H inh: 18; CSC inhib: -8; Rce1 inh: inactive; PABP polyA inh: 7; MT1-MMP act inh RFP: -1

How did CCOC(=O)C1(C)CCN1C(=O)c1cccc(OC(F)(F)F)c1 (centres undefined) do in these assays?
MT1-MMP act inh: 0; Env fusion inh: -154; Yeast UUG start: -5; MT1-MMP act inh RFP: 4

What do the screens show for `COc1ccc(Nc2nnc(SC(C(=O)Nc3cc(C)ccc3C)c3ccccc3)s2)cc1` (centres undefined)?
MT1-MMP act inh: -6; Env fusion inh: 18; eIF4H inh: 2; CSC inhib: 11; Yeast UUG start: -23; Rce1 inh: inactive; PABP polyA inh: 6; MT1-MMP act inh RFP: -14

What do the screens show for `COc1ccccc1Nc1nc(NCCC(C)C)nc(N)c1[N+](=O)[O-]`?
MT1-MMP act inh: -3; Env fusion inh: 14; eIF4H inh: 2; CSC inhib: 15; Yeast UUG start: 4; Rce1 inh: inactive; PABP polyA inh: 5; MT1-MMP act inh RFP: -7

What do the screens show for `C/C(=N\NC(=O)COc1ccccc1F)c1cc2ccccc2o1`?
MT1-MMP act inh: 5; Env fusion inh: -14; eIF4H inh: -10; CSC inhib: 2; Rce1 inh: inactive; PABP polyA inh: 11; MT1-MMP act inh RFP: 1

Results for Nc1nc(CSc2ncccn2)nc(Nc2ccccc2)n1 ?
MT1-MMP act inh: -3; eIF4H inh: 2; CSC inhib: -5; Yeast UUG start: -15; Rce1 inh: inactive; PABP polyA inh: 4; MT1-MMP act inh RFP: 1

How did Cc1ccc(NC(=O)COC(=O)Cn2cnc3c2c(=O)n(C)c(=O)n3C)cc1F do in these assays?
MT1-MMP act inh: -2; Env fusion inh: 25; Yeast UUG start: 7; MT1-MMP act inh RFP: 4

What do the screens show for `CC(=O)c1ccc(N=Nc2ccc(C)cc2)cc1`?
MT1-MMP act inh: 3; Env fusion inh: -66; eIF4H inh: -2; Rce1 inh: inactive; PABP polyA inh: 1; MT1-MMP act inh RFP: 3

What do the screens show for `C=CCN1c2ccccc2[C@]23C[C@@H](C(=O)OC)N(C(=O)NCCC)C2=NC(C(=O)OC)=C(C(=O)OC)[C@H]13`?
MT1-MMP act inh: 3; Env fusion inh: -15; eIF4H inh: -6; CSC inhib: -4; Yeast UUG start: -6; Rce1 inh: inactive; PABP polyA inh: 1; MT1-MMP act inh RFP: -4

How did O=C(/C=C/c1ccccc1)Nc1cccc(S(=O)(=O)Nc2ccccc2F)c1 do in these assays?
MT1-MMP act inh: 4; Env fusion inh: 27; eIF4H inh: 3; CSC inhib: 23; Yeast UUG start: -17; Rce1 inh: inactive; PABP polyA inh: -2; MT1-MMP act inh RFP: -1

Results for Cc1csc(SC(C)C(=O)Nc2ccc(Cl)cn2)n1 (centres undefined) ?
MT1-MMP act inh: -3; Env fusion inh: -20; eIF4H inh: -1; CSC inhib: -8; Yeast UUG start: 0; Rce1 inh: inactive; PABP polyA inh: -3; MT1-MMP act inh RFP: -2

Results for CCCNC(=O)CSc1nc(-c2cccs2)cc(C(F)(F)F)n1 ?
MT1-MMP act inh: -2; Env fusion inh: 23; eIF4H inh: -9; Yeast UUG start: -18; Rce1 inh: inactive; PABP polyA inh: -1; MT1-MMP act inh RFP: -6

Results for CC(C)C(=O)Nc1cccc(C(=O)Nc2nccs2)c1 ?
MT1-MMP act inh: 6; eIF4H inh: -2; CSC inhib: -10; Yeast UUG start: -4; Rce1 inh: inactive; PABP polyA inh: -2; MT1-MMP act inh RFP: -1

What do the screens show for `COC(=O)CSc1nc(C)c2ccc(OC)cc2n1`?
MT1-MMP act inh: 5; eIF4H inh: 7; CSC inhib: -13; Yeast UUG start: -17; Rce1 inh: inactive; PABP polyA inh: -5; MT1-MMP act inh RFP: 3

What do the screens show for `Cc1nc(-c2ccc(F)cc2)c(CC(=O)N2CCN(S(=O)(=O)c3ccccc3Br)CC2)s1`?
MT1-MMP act inh: -1; Env fusion inh: 8; eIF4H inh: 27; CSC inhib: -10; Yeast UUG start: -6; Rce1 inh: inactive; PABP polyA inh: 34; MT1-MMP act inh RFP: 0

What do the screens show for `O=C(Nc1ccc(S(=O)(=O)N2CCOCC2)cc1)c1nn(-c2ccc(F)cc2)ccc1=O`?
MT1-MMP act inh: 2; Env fusion inh: -7; eIF4H inh: -14; CSC inhib: -9; Yeast UUG start: -12; Rce1 inh: inactive; PABP polyA inh: -5; MT1-MMP act inh RFP: 1

Results for CC(=O)c1ccc(OC(=O)CCN2c3ccccc3Sc3ccccc32)cc1 ?
MT1-MMP act inh: -4; Env fusion inh: -4; eIF4H inh: -1; CSC inhib: -6; Rce1 inh: inactive; PABP polyA inh: -4; MT1-MMP act inh RFP: -1

Results for O=C(CCN1C(=O)/C(=C/C=C/c2ccccc2)SC1=S)Nc1nccs1 ?
MT1-MMP act inh: -1; Env fusion inh: -51; eIF4H inh: 2; CSC inhib: 9; Yeast UUG start: -12; Rce1 inh: inactive; PABP polyA inh: 3; MT1-MMP act inh RFP: 8

What do the screens show for `CC(C(=O)N1CCc2ccccc21)N1CCN(Cc2ccc(Cl)cc2)CC1` (centres undefined)?
MT1-MMP act inh: 1; Env fusion inh: -5; eIF4H inh: -8; CSC inhib: 17; Yeast UUG start: -5; Rce1 inh: inactive; PABP polyA inh: 8; MT1-MMP act inh RFP: -1

Results for O=C(O)c1ccc2c(c1)C(=O)N(c1cc(C(=O)O)ccc1Br)C2=O ?
MT1-MMP act inh: 0; Env fusion inh: -99; eIF4H inh: -9; CSC inhib: 3; Yeast UUG start: -2; Rce1 inh: inactive; PABP polyA inh: 12; MT1-MMP act inh RFP: 4

How did O=C(N/N=C/c1ccccn1)C(=O)N1CCCCCC1 do in these assays?
MT1-MMP act inh: 5; Env fusion inh: -5; eIF4H inh: 11; CSC inhib: -9; Yeast UUG start: -6; Rce1 inh: inactive; PABP polyA inh: -4; MT1-MMP act inh RFP: -2

Results for CC1CCCC(C)N1S(=O)(=O)c1ccc(NC(=O)CNC2CCCC2)cc1 (centres undefined) ?
MT1-MMP act inh: -3; Env fusion inh: 16; eIF4H inh: 5; CSC inhib: 3; Yeast UUG start: -11; Rce1 inh: inactive; PABP polyA inh: 2; MT1-MMP act inh RFP: -1

At a glance, two of the compounds above.
What do the screens show for `CC(=O)c1ccc(N=Nc2ccc(C)cc2)cc1`?
MT1-MMP act inh: 3; Env fusion inh: -66; eIF4H inh: -2; Rce1 inh: inactive; PABP polyA inh: 1; MT1-MMP act inh RFP: 3

What do the screens show for `C=CCN1c2ccccc2[C@]23C[C@@H](C(=O)OC)N(C(=O)NCCC)C2=NC(C(=O)OC)=C(C(=O)OC)[C@H]13`?
MT1-MMP act inh: 3; Env fusion inh: -15; eIF4H inh: -6; CSC inhib: -4; Yeast UUG start: -6; Rce1 inh: inactive; PABP polyA inh: 1; MT1-MMP act inh RFP: -4

Continuation:
What do the screens show for `O=[N+]([O-])c1ccc(-c2c(O)c3ccccc3c3nc4ccccc4nc23)cc1`?
MT1-MMP act inh: 27; Env fusion inh: -10; eIF4H inh: 6; CSC inhib: 42; Rce1 inh: inactive; PABP polyA inh: -7; MT1-MMP act inh RFP: -14

What do the screens show for `Cc1c(NC(=O)c2cn3ccccc3n2)cccc1-n1cnnn1`?
MT1-MMP act inh: 0; Env fusion inh: -24; eIF4H inh: -3; CSC inhib: -4; Rce1 inh: inactive; PABP polyA inh: -4; MT1-MMP act inh RFP: 3

How did Cc1ccc(-n2ncc3c(N4CCN(c5ccccc5)CC4)ncnc32)c(C)c1 do in these assays?
MT1-MMP act inh: 2; Env fusion inh: 90*; eIF4H inh: -6; CSC inhib: 31; Yeast UUG start: -10; Rce1 inh: inactive; PABP polyA inh: -2; MT1-MMP act inh RFP: -16

What do the screens show for `CN1CCN(Cc2cc(=O)oc3ccc(Cl)cc23)CC1`?
MT1-MMP act inh: -1; Env fusion inh: -96; eIF4H inh: -3; CSC inhib: -11; Yeast UUG start: -12; Rce1 inh: inactive; PABP polyA inh: -2; MT1-MMP act inh RFP: 1

What do the screens show for `Cc1onc(-c2ccccc2)c1C(=O)Nc1cccc(S(=O)(=O)N2CCCCC2)c1`?
MT1-MMP act inh: 0; Env fusion inh: 9; CSC inhib: 10; Yeast UUG start: -7; MT1-MMP act inh RFP: -5

What do the screens show for `CCCCn1c(N)c(N(CCOC)C(=O)c2cc(C)oc2C)c(=O)[nH]c1=O`?
MT1-MMP act inh: -1; CSC inhib: -11; Yeast UUG start: -14; Rce1 inh: inactive; MT1-MMP act inh RFP: 2

How did Cc1ccc2c(CC(=O)NCc3cccs3)coc2c1 do in these assays?
MT1-MMP act inh: -2; Env fusion inh: 29; eIF4H inh: -6; CSC inhib: -4; Yeast UUG start: -9; Rce1 inh: inactive; PABP polyA inh: 9; MT1-MMP act inh RFP: -2

What do the screens show for `CNC(=S)N(Cc1ccc(OC)cc1)Cc1cc2cc(C)ccc2[nH]c1=O`?
MT1-MMP act inh: -4; Env fusion inh: 19; eIF4H inh: -7; CSC inhib: -8; Yeast UUG start: 5; Rce1 inh: inactive; PABP polyA inh: -11; MT1-MMP act inh RFP: -3

What do the screens show for `O=C(Nc1ccccc1)c1cc([N+](=O)[O-])ccc1NC1CCCCC1`?
MT1-MMP act inh: -11; eIF4H inh: -6; CSC inhib: 15; Yeast UUG start: -12; Rce1 inh: inactive; PABP polyA inh: 2; MT1-MMP act inh RFP: -6

Results for COc1ccccc1CN1CCNC(=O)C1CC(=O)NC1CCCCCC1 (centres undefined) ?
MT1-MMP act inh: -2; Env fusion inh: 3; eIF4H inh: 7; CSC inhib: -1; Yeast UUG start: 10; Rce1 inh: inactive; PABP polyA inh: -9; MT1-MMP act inh RFP: 1

Hits appear at their usual frequency, and some 3% of all compounds hit somewhere here.
